Compound activity (PubChem)
rRNA inh HTS – inhibits bacterial ribosomal RNA function over humanized ribosomes; E. coli WT GFP vs humanized-ribosome RFP mutants, fluorescence, 24 h; stronger effect = lower value; DMSO median 0, no signal -100; GFP signal change (wild-type ribosome), % (concentration not given with the values); 350,000 tested, 1.6% active; AID 720706;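 active = significant combined selectivity score with lowered wild-type GFP, culture density cut under 30%, mutant RFP and density less affected; inactive = any of these conditions unmet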; also: one replicate is shown; some compounds called inactive have numbers as strong as hits
FGF22 binding – shifts melting point of recombinant human FGF22; 340,000 tested, 1.5% active; recombinant FGF22 thermal shift, SYPRO orange fluorescence; percent of sucrose octasulfate shift, DMSO zero; Q9HCT0; calls only at 9.99 µM;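 active = melting point raised past a set limit in the mean and every replicate; three in four hits are not shown here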
Target sequence (Q9HCT0 whole entry, looked up): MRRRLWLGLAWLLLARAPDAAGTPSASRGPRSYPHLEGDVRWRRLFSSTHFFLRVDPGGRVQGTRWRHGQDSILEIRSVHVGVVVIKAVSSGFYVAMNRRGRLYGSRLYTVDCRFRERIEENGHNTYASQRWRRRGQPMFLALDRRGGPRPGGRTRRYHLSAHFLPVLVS
MLL AF4-AF9 inh – MLL-AF4/AF9 protein interaction inhibition; P42568; inhibition, % at 10 µM; AlphaScreen, biotin-AF4 peptide binding to FLAG-AF9; AID 651704; 350,000 tested, 0.47% active;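 active = every replicate reaching a set inhibition limit, whatever the replicate mean, cut at about 25% in these data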;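 also: 0% = plate neutral control median and 100% = total signal loss; the record names both 10 and 1 µM as test concentration; the first replicate is given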
Target sequence (P42568 whole entry, looked up): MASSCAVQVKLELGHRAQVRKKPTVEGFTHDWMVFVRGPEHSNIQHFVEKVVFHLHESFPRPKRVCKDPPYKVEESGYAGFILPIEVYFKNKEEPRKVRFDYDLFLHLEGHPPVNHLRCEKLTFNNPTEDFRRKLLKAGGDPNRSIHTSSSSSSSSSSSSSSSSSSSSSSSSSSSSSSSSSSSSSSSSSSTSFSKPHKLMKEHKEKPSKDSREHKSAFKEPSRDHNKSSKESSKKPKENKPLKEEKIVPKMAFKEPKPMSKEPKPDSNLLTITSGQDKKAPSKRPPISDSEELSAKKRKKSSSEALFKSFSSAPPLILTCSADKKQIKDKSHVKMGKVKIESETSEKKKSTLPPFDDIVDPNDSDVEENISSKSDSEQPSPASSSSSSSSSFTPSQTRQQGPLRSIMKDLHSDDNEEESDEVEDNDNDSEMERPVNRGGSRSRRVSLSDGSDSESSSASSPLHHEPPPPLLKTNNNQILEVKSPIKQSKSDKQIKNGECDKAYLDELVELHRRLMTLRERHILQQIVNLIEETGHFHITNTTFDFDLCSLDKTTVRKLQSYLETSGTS
rRNA inh HTS OD600 – recorded beside rRNA inh HTS, whose call it bears; OD600 change, %; measured here: OD600 growth;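 optical density of the mix in the first replicate; 0 = DMSO median and -100 = no signal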
rRNA inh HTS RFP – also measured in rRNA inh HTS; calls as there; RFP signal change, %; measured here: RFP humanized mutant strains;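 first replicate; 0 = DMSO median and -100 = no signal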
The depositor's hits bear a star; i = inactive; + = active, no number; & = joins results of further samples. The list is partial; rates above refer to the full screens.

SMILES	rRNA inh HTS	rRNA inh HTS OD600	rRNA inh HTS RFP	FGF22 binding	MLL AF4-AF9 inh
CCNC(=O)C1CCCN(C(=O)c2ccc3c(c2)CCO3)CC1 (centres undefined)	6	7	-0.9	i	-3.4
C[C@H](CO)N1C[C@H](C)[C@H](CN(C)CC2CCCCC2)Oc2ccc(NC(=O)Nc3ccc(C(F)(F)F)cc3)cc2C1=O	-39	-40	28	i	9.9
N#C[C@@H]1[C@@H](c2ccc(C#Cc3ccccc3F)cc2)[C@H](CO)N1C(=O)C1CC1	8	-32	21	i	-1.8
C[C@H]1CN([C@@H](C)CO)C(=O)c2cc(NC(=O)Nc3ccccc3)ccc2O[C@@H]1CN(C)Cc1ccc(C(F)(F)F)cc1	1	-5	1.7	i	-2.4
C[C@@H]1CN([C@H](C)CO)C(=O)c2cc(NS(=O)(=O)c3cn(C)cn3)ccc2O[C@@H]1CN(C)Cc1ccc(C(=O)Nc2ccccc2N)cc1	2	-7	1.1	i	2.3
CCC(=O)N[C@H]1CC[C@H](CCNC(=O)Nc2ccc(F)cc2)O[C@@H]1CO	-2	2	6.3	i	9.3
CCN(CC)C(=O)C1=C(C)N(Cc2ccccc2)C(=O)C(CC(=O)NC(c2ccccc2)c2ccccc2)C1 (centres undefined)	-1	-23	3.3	i	1.7
COc1ccc2c3c([nH]c2c1)[C@H](CO)NCC31CCN(C(=O)C2CCOCC2)CC1	2	3	-2.0	i	-1.2
CCOC(=O)C1=CCC(c2cccn2C(=O)OC(C)(C)C)N(S(=O)(=O)c2ccc(C)cc2)C1 (centres undefined)	12	10	-3.5	i	1.4
O=C(Cc1cccnc1)N1[C@H](CO)[C@H](c2ccccc2)[C@@H]1CNCC1CCC1	-5	-7	0.4	i	1.9
Cc1ccc(S(=O)(=O)N[C@@H]2CC[C@H](CCn3cc(C4CCCC4)nn3)O[C@H]2CO)cc1	1	-6	-3.0	i	-14
C[C@@H]1CN([C@H](C)CO)S(=O)(=O)c2ccc(C3=CCCC3)cc2O[C@@H]1CN(C)C(=O)c1cccnc1	1	7	-2.8	i	-0.4
COc1ccc(NC(=O)Nc2ccc3c(c2)CC(=O)N([C@H](C)CO)C[C@H](C)[C@H](CN(C)S(=O)(=O)c2ccc(OC)cc2)O3)cc1	-1	1	1.6	i	3.9
Cc1noc(C)c1NC(=O)N[C@@H]1CC[C@H](CC(=O)Nc2ccccc2)O[C@H]1CO	2	3	-2.7	i	-2.8
COc1cc2[nH]c(C)c(-c3ccccc3)c(=O)c2cc1Cl	-2	2	1.7	i	-1.4
Cn1c(=O)c2cccnc2c(=O)n1C	2	12	-6.5	i	-2.4
O=C(C[C@H]1CC[C@H]2[C@@H](COC[C@H](O)CN2CCc2ccccc2)O1)NCCCN1CCOCC1	-9	-2	-2.0	i	-3.6
C[C@@H]1CN([C@@H](C)CO)S(=O)(=O)c2ccc(/C=C/c3ccccc3)cc2O[C@H]1CN(C)Cc1cccnc1	-3	-6	3.1	i	2.0
OC(c1ccccc1)C(NCc1ccccc1)c1ccccc1 (centres undefined)	8	-16	0.9	i	0.4
CC(C)NC(=O)N(C)C[C@H]1Oc2cc(C#CC3CC3)ccc2S(=O)(=O)N([C@@H](C)CO)C[C@H]1C	0	-8	2.0	i	-2.1
N#CC(c1ccccc1)c1ccc([N+](=O)[O-])cc1 (centres undefined)	-4	6	0.8	i	4.1
CC(=O)N1[C@H](CO)[C@H](c2ccccc2)[C@H]1CN(CC1CCC1)C(=O)CN(C)C	3	3	-2.0	i	-2.7
CCNC(=O)N(C)c1c(CC)nc2ccc(C(=O)N3CCN(S(=O)(=O)CC)CC3)cn12	13	8	3.1	i	-6.6
N#C[C@H]1[C@H](c2ccccc2C2=CCCCC2)[C@@H](CO)N1S(=O)(=O)c1ccccc1	-36	-68	-5.1	i	-3.9
C[C@@H]1CN([C@H](C)CO)S(=O)(=O)c2ccc(-c3cncnc3)cc2O[C@@H]1CN(C)C(=O)CN(C)C	11	22	-0.8	+	-3.2
COc1cccc(NC(=O)N(C)C[C@H]2Oc3ncc(C#Cc4ccccc4)cc3C(=O)N([C@H](C)CO)C[C@@H]2C)c1	-10	-8	8.6	i	1.7
Cc1ccc(-c2cnc3c(c2)C(=O)N([C@H](C)CO)C[C@@H](C)[C@H](CN(C)C)O3)cc1	4	10	-5.6	i	-0.2
COc1cccc(Cn2c3ccc(NC(=O)CC(C)C(F)(F)F)cc3c(=O)n2C)c1 (centres undefined)	-3	-3	-1.9	i	1.3
C[C@H](CO)N1C[C@H](C)[C@@H](CN(C)S(=O)(=O)c2cn(C)cn2)OCc2ccccc2-c2ccccc2C1=O	1	-7	0.7	i	-0.6
C[C@@H]1CN([C@H](C)CO)C(=O)c2cccc(NS(C)(=O)=O)c2O[C@@H]1CN(C)Cc1ccc(C(F)(F)F)cc1	-1	-11	-0.1	i	-5.5
COc1ccc(NC(=O)N(C)C[C@@H]2Oc3c(NS(=O)(=O)c4ccc(Cl)cc4)cccc3C(=O)N([C@@H](C)CO)C[C@H]2C)cc1	1	4	2.6	i	-2.1
COc1ccc(NC(=O)N(C)C[C@@H]2Oc3c(NS(=O)(=O)c4cn(C)cn4)cccc3C(=O)N([C@H](C)CO)C[C@H]2C)cc1	1	4	-0.3	i	-2.5
C[C@H](O)C#Cc1ccc2c(c1)O[C@@H](CN(C)Cc1ccccc1)[C@H](C)CN([C@H](C)CO)S2(=O)=O	-13	-34	15	i	1.4
COc1ccc(CNC(=O)C2(C)Cc3c(-c4ccccc4)ccnc3O2)cc1OC (centres undefined)	3	-26	-4.3	i	-2.7
Cc1nn(C)cc1NC(=O)C[C@H]1CC[C@@H]2[C@H](COc3ccc(NC(=O)C4CCC4)cc3C(=O)N2C)O1	4	2	-1.3	i	-4.1
O=C(Nc1ccn(C2CCC(CO)O2)c(=O)n1)c1ccccc1 (centres undefined)	6	14	0.3	i	10
C[C@H](CO)N1C[C@H](C)[C@@H](CN(C)Cc2ccc(C(=O)O)cc2)Oc2ccc(NS(=O)(=O)c3ccc(Cl)cc3)cc2C1=O	-1	2	-2.0	i	-1.1
C[C@H]1CN([C@@H](C)CO)S(=O)(=O)c2ccc(C#CC3(O)CCCC3)cc2O[C@@H]1CN(C)C(=O)Nc1ccccc1	2	0	1.1	i	-9.5
Cc1ccccc1S(=O)(=O)N(C)C[C@H]1OCc2cn(nn2)CCCC(=O)N([C@H](C)CO)C[C@H]1C	1	6	-1.3	i	-1.1
CC(=O)Nc1cc(-c2cccc(C(=O)N(C)C)c2)cn2c(-c3ccc(F)cc3)cnc12	3	5	8.0	i	-2.5

A draw from above in order of molecular weight, ascending:
SMILES	rRNA inh HTS	rRNA inh HTS OD600	rRNA inh HTS RFP	FGF22 binding	MLL AF4-AF9 inh
C[C@H](O)C#Cc1ccc2c(c1)O[C@@H](CN(C)Cc1ccccc1)[C@H](C)CN([C@H](C)CO)S2(=O)=O	-13	-34	15	i	1.4
Cc1ccccc1S(=O)(=O)N(C)C[C@H]1OCc2cn(nn2)CCCC(=O)N([C@H](C)CO)C[C@H]1C	1	6	-1.3	i	-1.1
Cc1nn(C)cc1NC(=O)C[C@H]1CC[C@@H]2[C@H](COc3ccc(NC(=O)C4CCC4)cc3C(=O)N2C)O1	4	2	-1.3	i	-4.1
C[C@H]1CN([C@@H](C)CO)S(=O)(=O)c2ccc(C#CC3(O)CCCC3)cc2O[C@@H]1CN(C)C(=O)Nc1ccccc1	2	0	1.1	i	-9.5
COc1ccc(NC(=O)N(C)C[C@@H]2Oc3c(NS(=O)(=O)c4cn(C)cn4)cccc3C(=O)N([C@H](C)CO)C[C@H]2C)cc1	1	4	-0.3	i	-2.5
COc1ccc(NC(=O)N(C)C[C@@H]2Oc3c(NS(=O)(=O)c4ccc(Cl)cc4)cccc3C(=O)N([C@@H](C)CO)C[C@H]2C)cc1	1	4	2.6	i	-2.1

More compounds.
SMILES	rRNA inh HTS	rRNA inh HTS OD600	rRNA inh HTS RFP	FGF22 binding	MLL AF4-AF9 inh
COc1ccccc1-c1cnc2c(c1)C(=O)N([C@H](C)CO)C[C@H](C)[C@@H](CN(C)Cc1cncnc1)O2	1	9	-1.1	i	-3.7
Cc1ccc(S(=O)(=O)Nc2ccc3c(c2)CC(=O)N([C@@H](C)CO)C[C@H](C)[C@H](CN(C)S(=O)(=O)c2c(C)noc2C)O3)cc1	3	-3	0.1	i	1.8
COC(=O)CC1(CC(N)=O)SCCS1	12	0	-2.9	i	-1.5
CC=Cc1ccc2n(c1=O)C[C@@H]1[C@@H](CO)[C@H](C(=O)NCCC)[C@H]2N1CCC(F)(F)F (mixture of isomers)	2	4	1.8	i	-0.3
N#C[C@H]1[C@@H](c2ccccc2C2=CCCC2)[C@@H](CO)N1C(=O)c1cccc(F)c1	-2	-4	3.3	i	-0.5
CN(C)C(=O)C[C@@H]1CC[C@@H]2[C@H](COC[C@@H](O)CN2Cc2ccc(C(F)(F)F)cc2)O1	-1	6	-0.9	i	-1.8
CN1CCN(C(=O)C[C@H]2CC[C@@H]3[C@H](COC[C@H](O)CN3CC3CCOCC3)O2)CC1	-3	0	-2.6	i	-3.6
CCC(=O)N[C@H]1CC[C@H](CCn2cc(C3CC3)nn2)O[C@@H]1CO	1	0	-2.4	i	-3.7
C[C@@H]1CN([C@@H](C)CO)C(=O)c2cc(NC(=O)Nc3ccccc3)ccc2O[C@H]1CN(C)Cc1ccc(C(F)(F)F)cc1	-6	-27	3.0	i	1.3
C[C@H]1CN([C@@H](C)CO)C(=O)c2cc(NC(=O)Nc3ccc(C(F)(F)F)cc3)ccc2O[C@H]1CN(C)Cc1ccccc1	-27	-45	17	i	2.5
CC(C)CC#Cc1cnc2c(c1)C(=O)N([C@H](C)CO)C[C@@H](C)[C@H](CN(C)C(=O)Nc1cccc(F)c1)O2	-1	-8	5.5	i	-0.6
COc1ccc(NC(=O)N(C)C[C@H]2OCCCC[C@@H](C)Oc3ccc(NC(=O)CCC(F)(F)F)cc3C(=O)N([C@H](C)CO)C[C@@H]2C)cc1	0	-3	0.8	i	-2.1
Cc1noc(C)c1C(=O)N(C)C[C@@H]1OCc2ccccc2-c2c(n(C)c3ccccc23)C(=O)N([C@H](C)CO)C[C@@H]1C	-2	2	-0.7	i	-2.1
CC(C)C[C@H]1COc2cc(NCc3ccc(Cl)c(Cl)c3)ccc2S(=O)(=O)N1	-26*	-20*	3.7*	i	0.0
C[C@H](CO)N1C[C@H](C)[C@H](CN(C)S(=O)(=O)c2cn(C)cn2)Oc2ncc(C#Cc3ccc(F)cc3)cc2C1=O	-1	0	-2.4	i	-2.8
Clc1ccc(C(c2cccs2)N2CCNCC2)cc1 (centres undefined)	-2	-14	-1.7	i	4.4
Cc1ccc(CN(C)C[C@H]2OCc3cnnn3CCCC(=O)N([C@H](C)CO)C[C@@H]2C)cc1	4&1	8&2	-1.6&0.3	i	-2.4&1.4
CCc1sc(C(=O)N(CCOC)c2c(N)n(Cc3ccccc3)c(=O)[nH]c2=O)cc1C	6	11	1.3	i	1.1
COc1ccccc1-c1cn(CC[C@@H]2CC[C@@H](NC(=O)c3cnccn3)[C@H](CO)O2)nn1	0	-2	0.7	i	0.2
N#C[C@H]1[C@H](c2ccccc2-c2ccccc2)[C@@H](CO)N1C(=O)Cc1ccncc1	-4	-4	-0.1	i	-1.1
C[C@H]1CCCCO[C@H](CN(C)Cc2ccccc2)[C@@H](C)CN([C@@H](C)CO)C(=O)c2cc(NC(=O)CCC(F)(F)F)ccc2O1	4&3	12&3	-2.8&-0.9	i	-0.6
C[C@H](CO)N1C[C@H](C)[C@H](CN(C)C(=O)Cc2ccncc2)Oc2cc(C#CC3CCCC3)ccc2S1(=O)=O	2	-13	5.9	i	6.6
C[C@@H]1CN([C@H](C)CO)C(=O)CCCn2nncc2CO[C@@H]1CN(C)C(=O)Nc1cccc(Oc2ccccn2)c1	0	-1	1.0	i	-1.0
Cc1ccc(C2=C(O)C(=O)C(c3ccc(C)cc3)=C(O)C2=O)cc1	6	7	-2.3	i	0.2
O=S(=O)(N[C@@H]1CC[C@@H](CCn2cc(-c3cccc(F)c3)nn2)O[C@H]1CO)c1ccc(Cl)cc1	-7	-49	33	i	-1.1
C[C@H](CO)N1C[C@H](C)[C@H](CN(C)S(=O)(=O)c2ccccc2)Oc2ccc(NC(=O)CCC(F)(F)F)cc2C1=O	2	5	1.5	i	-2.5
COC(=O)[C@@]1(Cc2ccc(OC)cc2)[C@H]2c3cc(C(=O)N4CCCC4)n(Cc4ccc(C)c(F)c4F)c3C[C@H]2CN1C(=O)c1ccccc1	20	12	5.1	i	3.1
CCCNC(=O)N1C[C@H](O)COC[C@@H]2O[C@@H](CC(=O)NCc3ccncn3)CC[C@H]21	-4	-2	-0.3	i	-5.8
C[C@@H]1CN([C@H](C)CO)C(=O)c2cc(NC(=O)Nc3cccc4ccccc34)ccc2O[C@@H](C)CCCCO[C@@H]1CN(C)C(=O)Cc1ccccc1	-3	-3	-3.1	i	-0.6
